Cruzain Triton: cruzain (T. cruzi) inhibition with detergent; P25779; purified cruzain, Z-FR-AMC fluorescence, 0.01% Triton; Potency, µM, inactives show max response, negative = inhibition, most hits filed as inhibitors; actives 0.43% (n = 200,000);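 further: plate controls were neutral wells for no effect and buffer without enzyme for full effect; nearly all actives have a fitted effect of over 40% in size; top concentration of the series not given in the record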
Target sequence (P25779 123-467 limits assumed): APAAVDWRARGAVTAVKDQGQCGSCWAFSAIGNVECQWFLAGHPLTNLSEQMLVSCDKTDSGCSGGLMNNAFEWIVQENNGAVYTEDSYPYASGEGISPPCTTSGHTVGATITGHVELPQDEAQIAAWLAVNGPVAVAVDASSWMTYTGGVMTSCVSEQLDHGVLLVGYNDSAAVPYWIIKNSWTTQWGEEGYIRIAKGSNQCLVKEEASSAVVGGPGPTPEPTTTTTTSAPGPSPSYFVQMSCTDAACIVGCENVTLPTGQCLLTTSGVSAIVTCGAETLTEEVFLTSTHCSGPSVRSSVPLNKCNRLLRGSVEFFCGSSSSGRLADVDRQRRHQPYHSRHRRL
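Cysteine protease activity tested under reducing, mildly acidic conditions (100 mM sodium acetate pH 5.5, 5 mM DTT) plus 0.01% Triton X-100. Cruzain 1.5 nM; substrate Z-FR-AMC 2 uM; 15 min compound preincubation at room temperature.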
Lassa entry inh: inhibitors of Lassa virus binding or cell entry. Lassa virus pseudotype entry inhibition, cell reporter; control for the full effect not named in the record. Potency, µM (series often up to 37.9 µM), inactives show at the highest dose activity change, negative = inhibition, actives largely listed as inhibitors. actives 1.2% (n = 300,000). AID 540256; active means well fitted inhibition curve with a large enough effect; inconclusive means small, poorly fitted or top-dose-only effect, or effect the other way; inactive means flat fitted curve, though single readings scatter; tested in HEK293 cells; further: on the % scale 0 is the no-effect control and ±100 the full control effect; nearly all actives have a fitted effect of over 50% in size; luciferase read-out
2A StopGo: FMDV 2A StopGo reporter, luciferase signal. human cells with a luciferase reporter of 2A StopGo recoding; control for the full effect not named in the record. Potency, µM (titrated, usually from 57.9 µM), for inactives: at the highest dose signal change, negative = less light. actives 1.2% (n = 410,000). AID 1159524; active = well fitted falling curve with a large enough effect; inconclusive = small, poorly fitted or top-dose-only effect; inactive = no such curve, though single readings can be large or run the other way; tested in HEK293T cells; further: on the % scale 0 is the no-effect control and ±100 the full control effect; nearly all actives have a fitted effect of over 45% in size; luciferase light after 4 h
Marburg entry inh: Marburg virus entry inhibition; Marburg virus pseudotyped entry inhibition, cell reporter; control for the full effect not named in the record; about a third of the inactives were read at about 46 µM; Potency, µM (highest dose often 37.8 µM), for the others: at the top dose activity change, negative = inhibition, most hits filed as inhibitors; actives 1.8% (n = 300,000); active = well fitted inhibition curve with a large enough effect; inconclusive = small, poorly fitted or top-dose-only effect, or effect the other way; inactive = flat fitted curve, though single readings scatter; tested in HEK293 cells; about a fifth of its hits are not listed in these tables; further: on the % scale 0 is the no-effect control and ±100 the full control effect; luciferase read-out
NS1 function inh: influenza NS1 inhibition. S. cerevisiae slowed by influenza A NS1, growth recovery by OD600. AID 2326. Potency, µM (doses to about 46.1 µM), for the others: at the highest dose activity, positive = more growth. actives 0.4% (n = 270,000); active means well fitted rising curve with a large enough effect; inconclusive means small, poorly fitted or top-dose-only effect; inactive means no such curve, though single readings can be large or run the other way; further: nearly all actives have a fitted effect of over 50% in size
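OD600 was taken as the measure of yeast growth restored by compound in an NS1-expressing S. cerevisiae strain. Cells had been washed out of glucose medium and diluted 1:100 into galactose -URA medium, pH 6.0.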
RE007 growth inh: less growth of the S. pombe RE007 Vpr strain; S. pombe RE007 Vpr strain, BacTiter-Glo ATP luminescence, 24 h; control for the full effect not named in the record; Potency, µM (titrated, usually from 92.2 µM), for the others: top-dose activity change, negative = less growth; actives 0.21% (n = 360,000); active = well fitted falling curve with a large enough effect; inconclusive = small, poorly fitted or top-dose-only effect; inactive = no such curve, though single readings can be large or run the other way;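 further: on the % scale 0 is the no-effect control and ±100 the full control effect; nearly all actives have a fitted effect of over 50% in size; the assay follows cell death caused by Vpr and the record does not say whether a fall means rescue or toxicity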
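Fission yeast strain RE007, carrying one chromosomally integrated HIV-1 vpr copy, was seeded at OD 0.01 in PMG+AL medium with 23 nL pinned compound. After 24 h at 30 °C and 99% humidity, viability was read by BacTiter-Glo luminescence.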
Cruzain inh noDet: cruzain (T. cruzi) inhibition without detergent | purified cruzain, Z-FR-AMC fluorescence, no detergent | actives 2.3% (n = 200,000) | AID 1476 | Potency, µM, inactives show max response, negative = inhibition, actives largely listed as inhibitors;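 further: plate controls were enzyme without inhibitor for no effect and buffer without enzyme for full effect; nearly all actives have a fitted effect of over 40% in size; top concentration of the series not given in the record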
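Purified cruzain at 1.5 nM, pre-incubated 15 min with compound at room temperature in 100 mM sodium acetate pH 5.5, 5 mM DTT, 0.00005% Triton X-100. Reaction started with 2 uM Z-FR-AMC; AMC fluorescence increase over 60 s gives rate.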
SARS PLpro yeast: blocks SARS-CoV papain-like protease in a yeast assay; S. cerevisiae expressing SARS-CoV PLpro, growth rescue; control for the full effect not named in the record; Potency, µM (top dose mostly 32.9 µM), without a hit: top-dose activity, positive = growth rescue; actives 0.19% (n = 330,000); AID 485353; active means well fitted rising curve with a large enough effect; inconclusive means small, poorly fitted or top-dose-only effect; inactive means no such curve, though single readings can be large or run the other way; further: 0% is about no effect; nearly all actives have a fitted effect of over 55% in size; growth read by luminescence after 48 h
Numbers without * were called inactive; ? = inconclusive; nt = no result given; & = joins results of further samples; [ ] = remark or other dose. Unless noted, the call rests on the fitted dose curve; in most records, active means well fitted curve in the direction sought with a large enough effect; inconclusive means small, poorly fitted or top-dose-only effect, or another doubt; inactive means no such curve, though single readings can be large; an effect the other way counts as inactive or inconclusive. Potency means the concentration at half of the fitted maximal effect.

SMILES | Cruzain Triton | Lassa entry inh | 2A StopGo | Marburg entry inh | NS1 function inh | RE007 growth inh | Cruzain inh noDet | SARS PLpro yeast
CN1C(=O)C2(NCCc3c2[nH]c2ccccc32)c2ccccc21 (stereo unspecified) | 2.1% | -2.9% | -9.7% | 10.1% | ? | -13.1% | -15.9% | 4.5%
CCC/C(O)=C1\C(=O)CC(C)(C)CC1=Nc1ccccc1OC | -11.0% | -12.5% | ? | ? | -39.6% | 34.1% | -6.3% | -19.8%
Cc1ccc2c(c1)CC(C)N2S(=O)(=O)c1nnc(NC(=O)c2ccccc2F)s1 (stereo unspecified) | 0.4% | 3.5%[46.1 µM] | -21.9% | nt | nt | nt | -8.9% | nt
O=C(NC1CC1)C1CC(=O)N(c2ccc(F)cc2)C1 (stereo unspecified) | nt | -0.2% | -7.9% | 0.1%[46.1 µM] | 4.2% | 5.9% | nt | 1.3%
COC(=O)C(C(=O)OC)c1ccc(N)cc1 | nt | 14.2% | -6.0% | 1.8% | 3.2% | -16.8% | nt | -2.3%
Cc1[nH]c(C)c(S(=O)(=O)N(C)Cc2ccccc2)c1C(=O)N1CCCC1 | nt | 10.8%[46.1 µM] | 16.8% | 8.3%[46.1 µM] | -6.5% | -10.4% | nt | -0.5%
O=[N+]([O-])c1c(Nc2ccc(O)cc2)cc(N2CCOCC2)c2nonc12 | -3.8% | nt | 46.4%[activator] | nt | 8.2% | 17.3% | -16.9% | 0.9%
COC(=O)c1ccc(-n2c(CCC(=O)O)ccc2-c2ccc(C)cc2)cc1 | -14.0% | 16.8%[46.1 µM] | ? | -27.3%[46.1 µM] | -2.7% | -8.5% | ? | 1.3%
COc1ccc(C(=O)c2c(N)c(-c3nc(-c4ccc(OC)cc4)cs3)c3ccccn23)cc1 | -2.4% | 3.2%[46.1 µM] | -11.5% | -10.2%[46.1 µM] | nt | nt | ? | nt
CC(SC(=S)N1CCOCC1)C(=O)O (stereo unspecified) | 1.9% | 19.5% | 3.3% | 24.6% | 7.2% | -9.5% | -4.4% | -3.8%
Cc1ccc(C(CC(=O)O)NC(=O)CCNC(=O)c2ccco2)cc1 (stereo unspecified) | nt | 10.1% | -12.6% | 1.2%[46.1 µM] | nt | 21.2% | nt | 3.2%
COc1ccc2ccccc2c1CNC(=O)CC1C(=O)NCCN1CC(C)C (stereo unspecified) | nt | -24.4% | -0.3% | -27.5%[46.1 µM] | 5.8% | -14.9% | nt | 0.3%
COc1ccc(N2C(=O)C3CCCN3C2c2ccccc2)cc1Cl (stereo unspecified) | 2.6% | -17.9% | 16.3% | -1.5% | -3.4% | 14.5% | -5.1% | -1.1%
CCCCn1c(=O)nc2n(-c3ccccc3C)c3ccccc3cc-2c1=O | -14.5% | 6.3% | -9.2% | 13.0% | 16.1% | 4.1% | -2.4% | -10.6%
O=C(CSc1ccccc1)NNC(=O)c1ccccc1O | nt | 1.1%[46.1 µM] | 8.4% | 3.5%[46.1 µM] | -18.1% | -5.9% | nt | -3.4%
COc1ccc(-n2c(C)nc3c(cnn3-c3ccc(C)c(C)c3)c2=O)cc1Cl | -7.5% | 18.1%[46.1 µM] | -1.6% | 8.9%[46.1 µM] | nt | nt | -1.5% | nt
Cc1ccc(-c2ccc(=O)n(CC(=O)N3CCC4(CC3)OCCO4)n2)cc1 | nt | 15.6%[46.1 µM] | -20.1% | -10.9%[46.1 µM] | nt | -9.4% | nt | 1.8%
CCc1ccc(NC(=O)CNC(=O)Cn2ccc3ccccc3c2=O)cc1 | nt | -4.1%[46.1 µM] | 21.5% | -1.9%[46.1 µM] | 8.1% | -7.7% | nt | 7.6%
O=C(Nc1ccccc1C(F)(F)F)c1ccc(F)c(S(=O)(=O)N2CCOCC2)c1 | -0.6% | -2.0% | nt | ? | -11.6% | 12.6% | 0.3% | ?
Fc1ccccc1-n1[nH]nnc1=S | 20µM* | -9.2% | 3.2% | ? | -67.5% | -20.6% | 12.6µM* | nt
Cc1cc(C)c(S(=O)(=O)Nn2cnnc2)c(C)c1 | nt | 8.5%[46.1 µM] | 6.1% | 16.1%[46.1 µM] | 1.5% | -0.8% | nt | 0.2%
O=S(=O)(NCCc1nnc2ccc(SCc3ccc(Cl)cc3Cl)nn12)c1ccccc1 | -7.6% | ? | -15.5% | nt | nt | nt | ? | nt
CCCCN(C)C1CCN(C(=S)Nc2cccc(SC)c2)CC1 | nt | 7.8%[46.1 µM] | -12.2% | ? | nt | -10.7% | nt | -5.7%
CC1=C(C)C(=O)C(N2CCOCC2)=CC1=O | -0.7% | nt | 0.0% | 0.6% | -27.2% | -29.2% | -0.5% | 27.7%
N#Cc1nc(-c2ccc(Cl)cc2)oc1N1CCCCC1 | ? | ? | 29.1% | -23.9%&-23.9% | -7.3% | 0.4% | 4.0% | 5.4%

Going on with the list.
SMILES | Cruzain Triton | Lassa entry inh | 2A StopGo | Marburg entry inh | NS1 function inh | RE007 growth inh | Cruzain inh noDet | SARS PLpro yeast
CC(Sc1ccc([N+](=O)[O-])cn1)C(=O)Nc1nccs1 (stereo unspecified) | nt | -12.2%[46.1 µM] | 11.2% | -2.2%[46.1 µM] | -7.6% | -5.2% | nt | 4.0%
CCOC(=O)CNC(=O)C1CCCN(c2ncccn2)C1 (stereo unspecified) | -2.7% | -65.2%[14.3 µM] | 0.0% | ? | -10.2% | 0.6% | 5.2% | 8.2%
CCOC(=O)N1CCC(NC(=O)c2ccc3c(c2)N(Cc2ccc(C)cc2)CCS3)CC1 | -9.4% | nt | -7.4% | 10.0% | -0.3% | 3.2% | 11.7% | 12.9%
CCc1nnc(NC(=O)Cn2nc(-c3ccccc3OC)ccc2=O)s1 | -2.3% | -14.2% | -2.3% | 3.7% | 6.4% | 2.3% | 5.4% | 8.8%
Fc1cccc(Nc2nc(Cl)nc(Cl)n2)c1 | nt | nt | 5.3% | nt | 1.9% | 3.3% | nt | 0.0%
Cc1cc([N+](=O)[O-])nn1CC(=O)Nc1ccccn1 | nt | 0.9% | 1.7% | 16.2%[46.1 µM] | nt | -3.3% | nt | 6.2%
CCc1ccc(CNC(=O)C2CCN(c3nnc(C)c4c(C)n(-c5ccc(C)cc5)nc34)CC2)cc1 | -3.4% | -15.6%[46.1 µM] | -20.2%&-28.1% | nt | 15.2% | -6.1% | 4.4% | 1.2%
CN(C)CCNC(=O)C(=O)NCC1OCCN1S(=O)(=O)c1cc(F)ccc1F (stereo unspecified) | nt | -0.5% | -13.5% | 11.8% | 4.9% | -7.2% | nt | 0.7%
Cc1cc(Cl)ccc1OC(C)C(=O)OCC(=O)c1ccc[nH]1 (stereo unspecified) | nt | 16.9% | -10.7% | 27.8% | nt | 10.2% | nt | -3.8%
Clc1ccccc1-c1ncc(-c2ccccc2)o1 | nt | nt | 35.1%[activator] | nt | -34.4% | -23.2% | nt | 0.2%
COCCNC(=O)COc1ccc(C)cc1C | 8.3% | -0.6% | -8.5% | ? | 2.9% | -17.6% | -7.2% | 13.7%
COc1cccc(OC)c1C(=O)Nc1ccc(N2CCN(C(=O)c3cccs3)CC2)cc1 | nt | 8.1% | -22.1% | 26.5% | 2.6% | 0.8% | nt | 10.9%
COc1cc(CC(=O)NCCCc2ccccc2)cc(OC)c1OC | nt | 0.2% | -9.3% | -7.4%[46.1 µM] | 6.6% | -4.7% | nt | 8.6%
COc1ccc(N2C(=O)CSC2c2ccc(F)cc2)cc1 (stereo unspecified) | nt | -19.7%[46.1 µM] | -18.3% | ? | 4.1% | 3.9% | nt | -1.3%
COc1ccc(-c2coc3cc(OC(=O)N4CCOCC4)ccc3c2=O)cc1 | nt | ? | ? | -10.5%[46.1 µM] | -2.8% | -17.6% | nt | 2.6%
O=C(Nc1ccccc1Cl)NN1CCCCCC1 | nt | 27.3%[46.1 µM] | 8.6% | ? | nt | -7.7% | nt | nt
C=CCN1C2CCCC1CC(NC(=S)Nc1ccc(Cl)cc1)C2 (stereo unspecified) | nt | nt | -3.8% | nt | 2.6% | -1.1% | nt | 0.5%
CCC(=O)Oc1ccc2c(C)c(Cl)c(=O)oc2c1 | -1.9% | -12.0% | -2.1% | -1.5% | -5.5% | ? | 13.9% | 7.1%
COc1ccc(OCCCSc2ncccn2)cc1 | 0.4% | ? | 16.2% | 6.7% | -14.5% | -9.8% | -5.1% | -3.3%
Cc1cnc(CNC(=O)c2ccc3oc(C(C)C)nc3c2)[nH]1 | nt | nt | 5.3% | nt | -9.9% | -1.1% | nt | 3.6%
CCOc1ccccc1NC(=O)CSc1nc2c(c(=O)[nH]1)CCC2 | -5.1% | ? | 6.0% | ? | nt | nt | -1.4% | nt
O=C(CCN1C(=O)C2C3C=CC(C3)C2C1=O)NCC1CCCO1 (stereo unspecified) | 4.3% | 0.4% | -8.1% | 1.8% | -3.3% | 10.1% | 12.0% | -0.4%
COc1ccc(CCNC(=O)/C=C/c2ccc(C)cc2)cc1OC | 5.4% | 3.4% | 0.5% | -10.3% | -111.9% | -7.9% | 6.2% | 1.7%
COc1ccc(S(=O)(=O)NCCc2sc(-c3cccc(C)c3)nc2C)cc1 | -9.0% | -18.5%[46.1 µM] | 10.7% | nt | nt | nt | -5.1% | nt
Nc1nonc1/C(=N/O)N1CCCC1 | 5.5% | -6.1% | -5.5% | 5.4% | 1.1% | 3.4% | 2.8% | -2.0%

Other records:
SMILES | Cruzain Triton | Lassa entry inh | 2A StopGo | Marburg entry inh | NS1 function inh | RE007 growth inh | Cruzain inh noDet | SARS PLpro yeast
Cc1[nH]c2c(C(=O)N3CCCC(CCC(=O)NCc4ccccc4F)C3)cccc2c1C (stereo unspecified) | nt | nt | 48.8%[activator] | ? | -9.6% | -6.5% | nt | 1.3%
C/C=C/c1ccc(OCCCCNCc2ccco2)c(OC)c1 | nt | -25.3%[46.1 µM] | -4.4% | ? | nt | -4.0% | nt | -6.1%
Cc1ncoc1C(=O)NC1CC(C)(C)Cc2c1cnn2-c1ccc(F)cc1 (stereo unspecified) | nt | nt | -21.0% | nt | 8.9% | 2.0% | nt | 6.0%
COc1cccc(N2CC(NC(=O)C(=O)c3c[nH]c4ccccc34)CC2=O)c1 (stereo unspecified) | nt | -18.0%[46.1 µM] | -20.5% | -10.4% | nt | -3.7% | nt | 0.3%
Cc1cc2cc3c(cc2nc1SCC(=O)N1CCOCC1)OCO3 | nt | nt | 18.0% | 19.8%[46.1 µM] | 1.7% | 14.8% | nt | -3.9%
O=C(Nc1ccc(C(=O)OCc2cc(=O)n3nc(C4CC4)sc3n2)cc1)c1cccc(F)c1 | 1.7% | 3.8%[46.1 µM] | 0.0% | nt | nt | nt | -8.4% | nt
